gsp antag = antagonizes gsp, the McCune-Albright syndrome mutation. 340,000 tested, 0.4% active. Potency, µM (titrated, usually from 76.9 µM), for inactives: at the top dose activity change, negative = inhibition, actives largely listed as inhibitors. gsp-mutant cells, cAMP HTRF, 30 min; control for the full effect not named in the record. AID 624288; active = falling curve of any shape with a large fitted effect; inconclusive = falling curve, mostly with a smaller effect; inactive = flat or rising curve; cell line not stated here;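 also: intracellular cAMP measured with PDE inhibitor Ro 20-1724 present during compound exposure; potency is read from the fitted curve at half-maximal effect; % is scaled to controls: 0 for no effect and ±100 for the full control effect; nearly all actives have a fitted effect of over 65% in size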
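Cells in G418 medium, seeded 16-24 h, 37C; buffer exchange to DPBS + 1 mM CaCl2, 0.5 mM MgCl2, 0.05% BSA; cpds in DMSO + […] (300 uM stock), 30 min 37C; HTRF cAMP detection.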
Menin-MLL FL inh = menin-MLL binding inhibition, fluorescein peptide. Fluorescence polarization, fluorescein-MLL peptide displacement from menin. FP activity change, % at 61.4 µM. 290,000 tested, under 10 active. AID 1766; inconclusive = falling polarisation curve, or a change in total fluorescence; inactive = total fluorescence flat and polarisation flat or rising; no compound was filed as active; the % refers to the polarisation; negative = inhibition;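 also: % of control where 0% means no effect; inhibitors lower the polarisation; unlabelled MLL peptide was the positive control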
TRPV1 PAM = potentiators of human vanilloid receptor 1 (TRPV1); Q8NER1; TRPV1-expressing cells, Fluo-8 calcium influx, capsaicin EC20 potentiation; host cell line not named in the record; control for the full effect not named in the record; potentiation, % at 8.33 µM; 320,000 tested, 0.02% active; active means potentiation above 80%; inconclusive means 30% to 80%; inactive means below 30%; also: 0% is about no effect
Target sequence (Q8NER1 whole entry, looked up): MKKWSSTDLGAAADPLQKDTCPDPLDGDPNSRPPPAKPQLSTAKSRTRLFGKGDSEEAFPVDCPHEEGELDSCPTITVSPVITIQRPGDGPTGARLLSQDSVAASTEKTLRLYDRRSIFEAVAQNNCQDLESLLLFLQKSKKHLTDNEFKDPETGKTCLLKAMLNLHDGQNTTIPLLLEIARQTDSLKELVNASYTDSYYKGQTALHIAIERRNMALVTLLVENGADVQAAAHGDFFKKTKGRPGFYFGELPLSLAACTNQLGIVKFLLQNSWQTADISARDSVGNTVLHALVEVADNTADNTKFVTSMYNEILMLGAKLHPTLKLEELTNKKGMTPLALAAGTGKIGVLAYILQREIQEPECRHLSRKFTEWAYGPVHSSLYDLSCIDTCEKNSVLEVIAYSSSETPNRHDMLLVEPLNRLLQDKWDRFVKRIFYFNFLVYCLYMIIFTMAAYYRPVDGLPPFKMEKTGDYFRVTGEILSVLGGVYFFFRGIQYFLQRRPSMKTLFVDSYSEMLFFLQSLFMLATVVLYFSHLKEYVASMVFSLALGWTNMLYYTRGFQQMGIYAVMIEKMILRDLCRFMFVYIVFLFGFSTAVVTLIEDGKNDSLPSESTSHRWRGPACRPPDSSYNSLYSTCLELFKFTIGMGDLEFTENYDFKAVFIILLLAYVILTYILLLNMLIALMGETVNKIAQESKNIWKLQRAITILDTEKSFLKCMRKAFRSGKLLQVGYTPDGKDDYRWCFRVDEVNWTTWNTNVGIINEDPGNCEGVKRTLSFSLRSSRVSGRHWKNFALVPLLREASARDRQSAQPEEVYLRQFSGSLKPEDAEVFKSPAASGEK
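Cells expressing TRPV1 were dye-loaded with Fluo-8 and read kinetically: 10 s baseline, 3 min after compound (agonist portion), then 2 min after EC20 capsaicin (allosteric enhancer portion). Calcium-bound dye fluorescence at 480/520 nm.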
gsp ag = gsp mutant agonism; gsp mutant cells, cAMP HTRF, 30 min; control for the full effect not named in the record; 340,000 tested, 0.13% active; Potency, µM (series often up to 76.9 µM), without a hit: at the top dose activation (cAMP increase), most hits filed as activators; active = well fitted activation curve with a large enough effect; inconclusive = small, poorly fitted or top-dose-only effect, or another doubt; inactive = no such curve, though single readings can be large or run the other way; cell line not stated here;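 also: phosphodiesterase inhibitor Ro 20-1724 added with compounds to block cAMP breakdown; potency is read from the fitted curve at half-maximal effect; nearly all actives have a fitted effect of over 60% in size; about a fifth of the inactives were tested at one dose only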
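Cells in DMEM/10% FBS with G418 were pretreated with compounds in DMSO plus […] (300 uM stock) for 30 min at 37C. cAMP was measured by HTRF (cAMP-d2 plus anti-cAMP antibody-K) after 30 min at room temperature.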
Sfp inh = Sfp phosphopantetheinyl transferase inhibition; 310,000 tested, 3.5% active; Potency, µM, inactives show max response, negative = inhibition, hits mostly inhibitors; Biochemical Sfp PPTase activity, qHTS; Q9F4F7; active = well fitted inhibition curve with a large enough effect; inconclusive = small, poorly fitted or top-dose-only effect, or another doubt; inactive = no such curve, though single readings can be large or run the other way;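 also: the enzyme is Sfp with the accession as filed and its product quenches rhodamine fluorescence; potency is read from the fitted curve at half-maximal effect; 0% = enzyme reaction without inhibitor and -100% = no enzyme wells; top concentration of the series not given in the record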
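Buffer: 50 mM Hepes-Na pH 7.6, 10 mM MgCl2, 0.01% Nonidet P-40, 0.01% BSA. Enzyme 15 nM, pre-exposed to compound 15 min; substrates then added and fluorescence change tracked over 30 min.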
CtBP-E1A blk = CtBP/E1A binding inhibition | AlphaScreen GST-E1A/His-CtBP binding, 1536-well; hits give low values; control for the full effect not named in the record | activity change, % (concentration not given with the values) | 340,000 tested, 0.49% active; in the data active means activity change below about -65%; inconclusive means about -30% to -65%; inactive means above about -30%; also: % is scaled to controls: 0 for no effect and ±100 for the full control effect
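GST-E1A and His-tagged CtBP (125 nM each as 5X stock) were preincubated with pin-transferred compound for 2 h at 37 °C in the dark, then glutathione donor and nickel acceptor beads were added for 1 h before AlphaScreen reading.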
ClpP mod = qHTS Assay for Activators of ClpP; Potency, µM (titrated, usually from 57.5 µM), for the others: at the top dose activity change, negative = active; ATP-dependent Clp protease proteolytic subunit (Bacillus subtilis (strain 168)), P80244; 340,000 tested, 1.9% active; AID 651965, 2013; purified B. subtilis ClpP, FRET peptide cleavage, 20 min; active = well fitted falling curve with a large enough effect; inconclusive = small, poorly fitted or top-dose-only effect; inactive = no such curve, though single readings can be large or run the other way; also: potency is read from the fitted curve at half-maximal effect; the source files actives as falling curves though it sought activators and does not explain the sign; nearly all actives have a fitted effect of over 65% in size; many hits overshoot -100%
Target sequence (P80244 whole entry, looked up): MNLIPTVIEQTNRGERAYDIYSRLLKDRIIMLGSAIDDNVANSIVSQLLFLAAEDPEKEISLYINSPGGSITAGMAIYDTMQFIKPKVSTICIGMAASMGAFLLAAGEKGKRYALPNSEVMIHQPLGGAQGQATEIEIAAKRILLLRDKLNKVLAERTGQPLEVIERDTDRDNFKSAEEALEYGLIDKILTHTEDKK
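Buffer: 100 mM Tris/HCl pH8, 100 mM KCl, 0.05% low protease BSA, 2.5% glycerol, 0.01% Tween-20. ClpP 10 microg/mL final; 20 min RT; delta FRET normalized to ADEP and DMSO controls.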
* = called active by the depositor; ? = inconclusive; nt = not tested or not shown; & = joins results of further samples; [ ] = another dose, or the depositor's remark. Random draw from the library (roughly 5.3% active in at least one column).

SMILES	gsp antag	Menin-MLL FL inh	TRPV1 PAM	gsp ag	Sfp inh	CtBP-E1A blk	ClpP mod
COc1ccccc1/C=C1\SC(=S)N(NS(=O)(=O)c2ccccc2)C1=O	-18%	2.5	-2	4%	-14%	-1	nt
O=C(CCC(=O)Nc1ccccc1)N/N=C/c1ccc2c(c1)OCO2	3%	nt	8	4%	6%	-9	-8.3%
COc1ccc(/C=N/OC(=O)Nc2ccc(Cl)cc2)c(OC)c1	-1%	2.2	-5	-6%	-4%	6	nt
COc1ccc(/C=C/C(=O)Nc2cc(S(=O)(=O)N3CCOCC3)ccc2C)cc1OC	-3%	0.3	-34	27%	10%	3	nt
CCCNC(=O)c1ccc(Cn2cc(C(F)(F)F)ccc2=O)cc1	3%	0.6	10	10%[15.4 µM]	20%	nt	nt
Cc1cc(NC(=O)COc2coc(CN3CCN(c4ccc(F)cc4)CC3)cc2=O)no1	8%	nt	2	-3%[15.4 µM]	nt	0	0.7%
CCCOP(=O)(c1ccc(N(C)C)cc1)C(O)c1cc(OC)c(OC)c(OC)c1 (stereo not given)	7%	0.8	5	-52%[inhibitor]	11%	3	-2.3%
O=[N+]([O-])c1ccc(Oc2cccnc2)c([N+](=O)[O-])c1	12%	nt	nt	-47%[inhibitor]	nt	0	1.6%
CCc1noc(C)c1C(=O)OCC(=O)N(CCOC)c1c(N)n(Cc2ccccc2)c(=O)[nH]c1=O	6%	nt	-7	26%[15.4 µM]	nt	5	nt
Cc1cc([N+](=O)[O-])ccc1NC1CCCC1	-26%	4.5	13	-32%	-3%	0	-0.5%
O=c1oc(-c2ccccc2Br)nc2ccccc12	7%	1.1	26	-19%	-20%	-12	nt
O=C1c2c(O)cc(O)cc2O[C@H](c2ccc(O)c(O)c2)[C@H]1O	13%	-3.5	4	nt	-2%	-1	-0.8%
CCC(C)(C)n1nnnc1C(c1ccc(C)cc1)N1CCN(Cc2ccc3c(c2)OCO3)CC1 (stereo not given)	-5%	2.0	-7	-36%[inhibitor]	25%	-14	3.3%
C#CCn1cc(Cl)cc(C(=O)Nc2ccccc2)c1=O	-13%	1.1	-24	?	3%	nt	-5.6%
Cn1c(C(=O)OCC(=O)NCc2cccs2)cc2sccc21	8%	3.9	-12	4%	8%	-2	-3.1%
CN(CC(=O)Nc1cc(C(F)(F)F)ccc1-n1cncn1)Cc1nc2ccccc2c(=O)[nH]1	-13%	nt	nt	-3%	nt	-20	-2.9%
Cc1ccc2nc(NC(=O)C3CCN(S(=O)(=O)c4cc([N+](=O)[O-])ccc4Cl)CC3)sc2c1	-7%	5.7	-20	0%[15.4 µM]	-3%	?	-4.8%
CCOC(=O)C1(Cc2cccc(F)c2)CCN(C(=O)COC)CC1	10%	3.4	-7	0%	21%	nt	-1.3%
CN(C)C(=S)NC(C)(C)C	6%	2.8	nt	-23%[15.4 µM]	10%	3	nt
CCC(=O)NC(=Nc1nc2ccccc2s1)NC(=O)CC	?	3.3	-8	-9%	4%	-2	-8.7%
Cc1onc(-c2ccccc2)c1C(=O)OCC(=O)Nc1cc(S(=O)(=O)N2CCOCC2)ccc1Cl	-24%	-2.8	16	-3%	6%	5	nt
OC(COc1ccc(OCC(O)CN2CCN(Cc3ccccc3)CC2)cc1)CN1CCN(Cc2ccccc2)CC1 (stereo not given)	6%	nt	nt	?	nt	-17	nt
COc1ccc(N/C=C\C(=O)c2ccc(Br)cc2)cc1OC	2%	-0.8	-6	-16%	-1%	2	0.9%
CCOc1cc(NC(=S)NCCCN2CCOCC2)c(OCC)cc1NC(=O)CC(C)C	-2%	5.4	4	10%	13%	-3	1.3%
CN(C)NC(=S)NC1CC2CCC1C2 (stereo not given)	-3%	6.8	24	-41%[inhibitor]	-13%	3	1.2%
CC(=O)c1cn(C)c(=O)n(C)c1=O	4%	3.3	11	?	-21%	0	1.6%
CC(OC(=O)Cc1n[nH]c(=O)c2ccccc12)C(=O)Nc1ccc(F)cc1 (stereo not given)	-6%	nt	?	1%[15.4 µM]	nt	6	nt
COc1cccc2cc(C(=O)NCc3ccccc3Br)c(=O)oc12	10%	nt	6	?	0%	3	-0.3%
CCOc1cc(CNc2ccc3c(c2)OCCO3)cc(Br)c1OCC(N)=O	?	3.3	6	-61%[inhibitor]	1%	7	4.2%
Cc1ccc(OCCC(=O)OCC(=O)N2CCN(S(=O)(=O)c3ccc(Cl)cc3)CC2)cc1	-5%	nt	-2	-2%[15.4 µM]	nt	8	nt
Cc1ccc2c(c1)cc(CN(Cc1cccnc1)C(=O)NCc1ccccc1)c1nnnn12	-10%	3.3	-25	-47%[inhibitor]	9%	-8	-5.8%
Cc1ccc(OC(=O)c2ccc(Br)o2)cc1	6%	0.7	-12	9%	-4%	12	0.5%
O=C1CCC/C(=N\NC(=O)COc2ccc(Cl)cc2)C1	6%	?	?	4%	5%	8	nt
CC(C)(C)c1cccc(Cn2nnc3ccccc32)c1O	-2%	nt	-1	nt	nt	0	-5.5%
COc1cc(CCC(=O)OCC(=O)NCc2ccccc2)cc(OC)c1OC	-5%	-4.3	12	0%	0%	-17	-4.0%
Cc1ccc(N(CC(=O)NCc2ccc3c(c2)OCO3)C(=O)CCC(=O)Nc2ccccn2)cc1	nt	-0.5	-22	-4%[15.4 µM]	0%	0	nt
Cc1cc2c(cc(C(=O)O)n2C)s1	-3%	-0.9	-6	-3%	14%	-6	1.3%
COc1ccc(NC(=O)NC(=O)c2cc(OCC(F)(F)F)ccc2OCC(F)(F)F)cc1	7%	0.2	-1	-2%[15.4 µM]	?	7	nt
Cc1c(C(=O)N(Cc2cccc(Br)c2)C2CCS(=O)(=O)C2)oc2ccc(F)cc12 (stereo not given)	?	nt	-2	16%	10%	-4	-0.9%
CN(CCc1ccccn1)C(=O)CCNC(=O)Cn1cnc2ccccc2c1=O	12%	-0.3	?	4%	12%	-2	-1.0%
Cc1ccnc(NCc2c(O)ccc3ccccc23)c1	-8%	-2.8	2	-3%	-5%	nt	5.6%
Cc1ccc(S(=O)(=O)N2CC3CCCC2C3)cc1 (stereo not given)	-6%	3.4	-5	7%[15.4 µM]	14%	8	nt
Cc1csc(SCC(=O)Nc2oc(C)c3c(C)n[nH]c(=O)c23)n1	2%	nt	-5	9%	nt	0	-0.5%
O=C(CCNS(=O)(=O)c1ccc(Cl)cc1)N1CCN(Cc2ccccc2)CC1	6%	1.0	1	-8%[15.4 µM]	-3%	12	1.0%
Cc1cccc(N2CCN(C(=O)C3CC(=O)N(C4CCCC4)C3)CC2)c1C (stereo not given)	-2%	nt	-33	-21%	4%	14	-2.1%
Cc1nn(-c2ccccc2)c(Cl)c1/C=N/O	3%	1.4	2	-39%[inhibitor]	22%	nt	0.4%
COc1ccc(-n2c(Cc3cccn3C)nnc2SCC(=O)Nc2ccc(C)cc2C)cc1	-14%	2.0	4	-24%	-19%	-5	2.2%
CN(C)C=NC(=O)c1cn(-c2ccc(F)cc2)c(=O)c2ccccc12	-2%	-4.1	-1	-2%	19%	8	nt
COc1cccc(C(=O)NNC(=O)c2cccnc2)c1	6%	0.9	5	25%	27%	6	nt
CC1CCc2[nH]c3ccc(C(=O)N(C)CC(=O)Nc4ccc(F)cc4)cc3c2C1 (stereo not given)	-14%	nt	9	14%[15.4 µM]	2%	-9	-1.9%

New compounds follow
SMILES	gsp antag	Menin-MLL FL inh	TRPV1 PAM	gsp ag	Sfp inh	CtBP-E1A blk	ClpP mod
CC1CCN(C(=O)CSc2nnc(-c3cc4ccccc4cc3O)n2Cc2ccco2)CC1	-25%	0.1	-11	-6%	28µM*	-6	-2.6%
COc1ccccc1CNC(=O)C/C(C)=N/NC(=O)Cc1ccc(OC)c(OC)c1	16%	6.6	-12	-56%	30%	1	0.2%
CN(C)S(=O)(=O)c1cccc(C(=O)OCC(=O)NCc2ccc3c(c2)OCO3)c1	-12%	-6.8	1	5%	14%	2	nt
COc1nc(OC)nc(N2CCC(C(=O)NCC3CCCCC3)CC2)n1	0%	2.2	6	2%	20%	7	-0.4%
Nc1c(N(CCC2=CCCCC2)C(=O)COc2ccc([N+](=O)[O-])cc2)c(=O)[nH]c(=O)n1Cc1ccccc1	7%	nt	nt	-37%[inhibitor]	nt	-4	0.8%
CCN(Cc1ccccc1)S(=O)(=O)c1ccc(C(=O)N(CCCN(C)C)c2nc3cc4c(cc3s2)OCCO4)cc1	-1%	nt	-23	12%[15.4 µM]	nt	?	-4.5%
CN(C)NC(=O)C(NC(=O)c1ccccc1)C12CC3CC(CC(C3)C1)C2 (stereo not given)	7%	?	-2	-21%	2%	-21	-0.8%
CCn1nc(NC(=O)c2cccnc2)c2cc3ccccc3nc21	1%	1.1	4	0%	10%	-10	-0.8%
COC(=O)C1=C(C)NC(C)=C([N+](=O)[O-])C1c1ccccc1C(F)(F)F (stereo not given)	?	0.3&2.1	-6&2	nt	9%&-3%&-7%	-27&-8	-4.6%&-0.8%
COc1ccc(S(=O)(=O)N2CCOCC2)cc1C(=O)NC1CCCCC1	10%	nt	26	5%	11%	-3	-7.2%
CCCc1cc(=O)oc2cc(OCC(=O)N(C)C)c(Cl)cc12	-8%	3.3	19	0%	18%	1	?
CCOC(=O)c1sc2ncn(/N=C/c3ccc(O)c(OC)c3)c(=O)c2c1C	-14%	-0.8	-2	?	-13%	nt	8.3%
COc1ccc(C2=NN(C(C)=O)CC2c2cccc([N+](=O)[O-])c2)cc1 (stereo not given)	-16%	-4.3	2	5%	11%	nt	0.5%
Cc1c[nH]c2cccc(OCC(CNC(C)(C)C)OC(=O)c3ccccc3)c12 (stereo not given)	10%	-0.8	2	-1%[15.4 µM]	2%	?	0.4%
O=C(CCCNC(=O)c1ccc(Cl)cc1)Nc1ncccc1O	14%	nt	-2	-3%	14%	-23	-3.9%
CCCOC1CCCN(C(=O)c2cc(COc3cncc(Cl)c3)on2)C1 (stereo not given)	-11%	-2.2	-25	?	-1%	11	-0.3%
CCC(C)Nc1nc(N)c([N+](=O)[O-])c(NCCO)n1 (stereo not given)	16%	-1.8	-4	-53%[inhibitor]	7%	nt	0.6%
O=C(c1ccco1)N1CCN(c2ccc([N+](=O)[O-])cc2Cl)CC1	-7%	0.5	5	1%	-9%	-3	-1.0%

Screening data: PubChem BioAssay, National Center for Advancing Translational Sciences (NCATS)
